Bioassay records from PubChem BioAssay.
KAT2A inh = GCN5L2 (KAT2A) acetyltransferase inhibition; Q92830; GCN5L2 HAT assay, ThioGlo1 CoA-SH fluorescence; Potency, µM (titrated, usually from 58.9 µM), without a hit: top-dose activity change, negative = inhibition, actives largely listed as inhibitors; 0.21% of 390,000 active; active = well fitted inhibition curve with a large enough effect; inconclusive = small, poorly fitted or top-dose-only effect, or another doubt; inactive = no such curve, though single readings can be large or run the other way
Target sequence (Q92830 whole entry, looked up): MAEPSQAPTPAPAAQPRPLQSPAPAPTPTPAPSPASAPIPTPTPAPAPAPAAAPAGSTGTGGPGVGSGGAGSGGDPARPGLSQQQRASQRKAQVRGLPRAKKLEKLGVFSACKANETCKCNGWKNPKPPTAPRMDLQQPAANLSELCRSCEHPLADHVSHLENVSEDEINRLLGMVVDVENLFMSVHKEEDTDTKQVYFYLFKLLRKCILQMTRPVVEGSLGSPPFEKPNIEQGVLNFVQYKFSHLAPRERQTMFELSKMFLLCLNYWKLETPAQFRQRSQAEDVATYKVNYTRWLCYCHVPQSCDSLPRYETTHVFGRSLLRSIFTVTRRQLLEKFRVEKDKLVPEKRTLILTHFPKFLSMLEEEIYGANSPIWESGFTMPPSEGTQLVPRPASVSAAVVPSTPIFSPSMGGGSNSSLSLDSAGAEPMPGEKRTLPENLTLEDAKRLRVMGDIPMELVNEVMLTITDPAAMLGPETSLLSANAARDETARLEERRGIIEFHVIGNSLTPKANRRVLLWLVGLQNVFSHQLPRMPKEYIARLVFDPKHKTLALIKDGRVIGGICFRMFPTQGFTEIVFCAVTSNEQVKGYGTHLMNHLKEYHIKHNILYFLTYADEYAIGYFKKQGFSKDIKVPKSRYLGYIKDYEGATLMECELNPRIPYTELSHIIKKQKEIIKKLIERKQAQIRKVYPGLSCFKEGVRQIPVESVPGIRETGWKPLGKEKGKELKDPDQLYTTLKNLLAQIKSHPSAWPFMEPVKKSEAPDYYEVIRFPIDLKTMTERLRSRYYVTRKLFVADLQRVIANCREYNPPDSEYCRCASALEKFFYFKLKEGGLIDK
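qHTS, 1536-well. 20nM enzyme, pH 7.5 HEPES/EDTA/Tween-20 buffer; 15 min compound preinc., RT. Start: 75uM H3(1-25), 70uM AcCoA, 50uM ThioGlo1. Read Ex340/Em540 at t=0 (autofluorescence flag) and t=20 min.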
Numbers without * were called inactive; ? = inconclusive; & = joins results of further samples; [ ] = another dose, or the depositor's remark. % is set by controls: 0 for no effect and ±100 for the full control effect; potency is the fitted concentration of half-maximal effect. Not all compounds are listed, and most or all hits are left out here.

SMILES	KAT2A inh
CCOc1ccc(CN2C(=O)CC(=O)N(S(=O)(=O)c3ccc(OCC)cc3)C2=O)cc1	-6%
O=C(O)c1ccc(N=NN2CCCC2)cc1	-11%
Cc1cccc(NC(=O)CS(=O)(=O)Cc2ccccc2)n1	2%
Cc1ccc(C2=[N+]([O-])C3(CCCCC/C3=N\NC(N)=O)N(O)C2(C)C)o1 (centres undefined)	0%
O=C(CSc1nc2ccccc2o1)NCC(=O)c1ccccc1	3%
COc1ccc(C2C(C#N)=C(N)Oc3n[nH]c(C)c32)cc1Cn1nnc2ccccc21 (centres undefined)	-3%
CCOc1ccc(C(O)c2nccn2C)cc1 (centres undefined)	-6%
O=S(=O)(c1cccc(-c2nnc(-c3cccnc3)o2)c1)N1CCCCC1	5%
CCCCN(CCCC)CCNC(=O)c1cn(C)c2ccc(S(=O)(=O)N(C)C3CCCCC3)cc2c1=O	-2%
COc1ccc(CNC(=O)c2oc3ccc(S(=O)(=O)N4CCOCC4)cc3c2C)cc1	-10%
Cc1oc(-c2cc(F)ccc2F)nc1CN1CCN(C)C(=O)[C@@H]1C	-9%
CN(Cc1ccccc1)C(=O)c1nc2ccccn2c1CNCCCOc1cccnc1	-2%
CCOc1ccc(N2CC(C(=O)Nc3ccc(S(=O)(=O)Nc4ncccn4)cc3)CC2=O)cc1 (centres undefined)	-1%
COc1ccc(CN(Cc2ccccn2)S(=O)(=O)c2ccc(-n3cnnn3)cc2)cc1	0%
CC(NO)/C(=N\O)c1cccs1 (centres undefined)	-11%
N#Cc1c[nH]n2c(NC3CCCCC3)c(-c3ccc(F)cc3)nc12	-6%
COc1ccc(C2(C)NC(=O)N(CC(=O)NCCC3=CCCCC3)C2=O)cc1OC (centres undefined)	-1%
CCN(CC(=O)Nc1ccc2c(c1)OCCO2)C(=O)CN1C(=O)NC(C)(c2ccc(C)cc2)C1=O (centres undefined)	4%
O=C(NCCc1cccs1)c1ccc(Cn2c(SCc3ccccc3)nc3cccnc32)cc1	-18%
CCn1c(SCC(=O)Nc2ccc(OCc3ccccc3)cc2)nnc1-c1ccco1	-10%
CC(=O)Nc1ccc(S(=O)(=O)N2CCC(C(=O)NCc3cccnc3)CC2)cc1	-1%
CCN(CC)CCN(C(=O)c1ccc(C(C)=O)cc1)c1nc2ccc(Cl)cc2s1	-1%
Cc1cc(Br)c(OCC(=O)NN)c2c1CCC2	0%
NNc1nc(-c2ccccc2)c2cc(Cl)ccc2n1	-5%
CCOC(=O)c1ccc(NC(=S)NNC(=O)c2cc(-c3cccnc3)nc3ccccc23)cc1	-21%

2 entries drawn at random from the list so far, as already listed:
SMILES	KAT2A inh
N#Cc1c[nH]n2c(NC3CCCCC3)c(-c3ccc(F)cc3)nc12	-6%
O=C(CSc1nc2ccccc2o1)NCC(=O)c1ccccc1	3%

Additional entries follow.
SMILES	KAT2A inh
Cc1cc(C(=O)NCCCN2CCN(C3CCCCC3)CC2)n(-c2ccccc2)n1	2%
CC(=O)Nc1cccc(Oc2ncnc3scc(-c4ccc(C)cc4)c23)c1	-13%
CC(C)CCNC(=O)c1onc(CSc2ccc(Cl)cc2)c1C(=O)NCCC(C)C	-5%
Cc1ccc(C)c(N(CC(=O)Nc2cc(Cl)ccc2Oc2ccccc2)S(C)(=O)=O)c1	-25%
Cc1ccc(S(=O)(=O)N2CCOCC2)cc1C(=O)Nc1ccccc1F	-14%
N#CCc1nc(CSc2nc3ccccc3s2)cs1	-28%
Cc1ccc(S(=O)(=O)CCN2CCN(c3ccccn3)CC2)cc1	-4%
COc1ccc(OC)c(NC(=O)Cn2c(CCC(=O)O)ccc2-c2ccccc2)c1	-13%&0%
CCOC(=O)c1c(NC(C)=O)sc2c(O)c(Br)ccc12	-3%
CCOC(=O)CNC(=O)N1CCCC(C(=O)c2cccc(Cl)c2)C1 (centres undefined)	-3%
O=C(Nc1nc(-c2cc(F)ccc2F)cs1)c1ccccn1	1%
COc1ccc2c(c1)c(CC(=O)Nc1c(C)cccc1C)c(C)n2C(=O)c1ccc(Cl)cc1	-8%
CC1(C)CC(=O)N(CC(=O)O)c2ccccc2S1(=O)=O	-1%
COc1ccc(C(=O)c2oc3ccccc3c2NC(=O)COc2ccc(C)cc2)cc1	-5%
COc1ccc(CN(C)CC(=O)Nc2cccc3ccccc23)cc1F	-1%
Cc1ccc(N(CC(O)CN2C(=O)NC(C)(C)C2=O)S(=O)(=O)c2ccc(C)cc2)cc1 (centres undefined)	7%
CCc1nnc2c3ccccc3nc(Nc3ccc(F)cc3C)n12	0%
CCOC(=O)c1ccc(-c2csc(NC(=O)CN3CCC(C)CC3)n2)cc1	1%
CC(C)n1c(SCc2ccc(Cl)cc2)nc2c1c(=O)[nH]c(=O)n2C	-2%
Cc1[nH]c(=O)nc2c1CCC2	-4%
CCOC(=O)C(=CNc1cccc(N)n1)C(=O)OCC	-14%
CCCN(CCC)C(=O)CCS(=O)(=O)c1cccc2nsnc12	2%
COc1ccc(-n2nc3c(c2NC(=O)CCCCl)CSC3)cc1	-5%
O=C1c2ccccc2C(Nc2ccccc2)N1c1cccnc1 (centres undefined)	-6%
Cc1ccc(NC(=O)CN2C(=O)C(=O)N(C3CCCC3)C2=O)c(Cl)c1	2%

Three entries from above, field by field.
COc1ccc(OC)c(NC(=O)Cn2c(CCC(=O)O)ccc2-c2ccccc2)c1
- KAT2A inh: -13%&0%

O=C1c2ccccc2C(Nc2ccccc2)N1c1cccnc1 (centres undefined)
- KAT2A inh: -6%

O=C(Nc1nc(-c2cc(F)ccc2F)cs1)c1ccccn1
- KAT2A inh: 1%

Following part:
SMILES	KAT2A inh
CC1CCN(CCCNC(=O)c2coc3nc4ccccc4nc23)CC1	-7%
O=C(CSc1nnc(NC(=O)c2cccc(Cl)c2)s1)NCC1CCCO1 (centres undefined)	0%
Cc1ccc(N2CC(NC(=O)c3ccccc3C(F)(F)F)CC2=O)cc1C (centres undefined)	3%
O=C(CN(C(=O)c1csnn1)c1ccc(F)cc1)NCc1ccc(F)cc1	8%
COc1ccc(CCNC(=O)CC2SC(=NCCC(C)C)NC2=O)cc1OC (centres undefined)	-2%
COc1ccccc1C(=O)Nc1ccnn1C1CCN(C(=O)c2ccoc2C)CC1	0%
CCCC(=O)NC(NC(=S)Nc1ccc(S(N)(=O)=O)cc1)C(Cl)(Cl)Cl (centres undefined)	-4%
Cc1cc(Cl)c2oc(C(=O)N3CCCCC3CCN3CCCC3=O)c(C)c2c1 (centres undefined)	3%
FC(F)(F)c1ccc(-c2nc(=S)[nH][nH]2)cc1	-15%
Cc1ccc(NC(=O)CSc2nc(N)cc(=O)[nH]2)cc1S(=O)(=O)N1CCCCC1	-5%
CNC(=O)CSc1cnc2ccccc2n1	3%
COc1ccccc1CNS(=O)(=O)c1cc(CN2C(=O)c3cccnc3C2=O)ccc1OC	-5%
O=C(C1CCCN(Cc2ccncc2)C1)N1CCc2ccccc2C1 (centres undefined)	-7%
N#Cc1ccc(C(c2nnnn2C2CCCC2)N2CCC(Cc3ccccc3)CC2)cc1 (centres undefined)	-6%
COc1ccc(OC)c(NC(=O)CCCN2C(=O)C3C4C=CC(C4)C3C2=O)c1 (centres undefined)	-5%
COc1ccc(NC(=O)CN(C)C(=O)Cn2c(=O)oc3ccccc32)cc1	-5%
O=C(Nc1ccnn1C1CCN(Cc2ccccc2)CC1)C1CCOC1 (centres undefined)	-5%
Cc1nc2cc3c(cc2c(C)c1C(=O)OC(C)C)OCO3	1%
CCN(C(=O)COC(=O)c1cnccn1)c1cccc2ccccc12	-2%
CCOc1ccc(NC(=O)CC2C(=O)N(c3cccc(C)c3)C(=O)N2Cc2cccnc2)cc1 (centres undefined)	0%
O=C(NCCc1c[nH]c2ccccc12)c1ccc(Br)o1	-1%
COc1ccc(-c2ccc(CCC(=O)O)n2NC(=O)c2ccc(C(C)(C)C)cc2)cc1	0%
Cc1ccc(C(=O)OCC(=O)Nc2ccc3[nH]c(=O)[nH]c3c2)o1	-3%
CC(=O)Nc1ccc(NC(=O)CSc2nc3ccccc3c(=O)n2CCCN2CCOCC2)cc1	-5%
O=Cc1ccc(OCc2nnsc2Cl)cc1	-4%

The listing continues:
SMILES	KAT2A inh
Cn1c(SCC(=O)Nc2ccc(F)cc2)nc2c(c1=O)SCC2	-2%
COCCOC(=O)C1=C(N)OC2=C(C(=O)CC(C)(C)C2)C1c1cccnc1 (centres undefined)	-12%
O=C(Nc1ccc(Cl)cc1)/C(=C1\CCCN1)[N+](=O)[O-]	0%
COc1ccccc1C(=O)N/C(=C\c1cn(S(=O)(=O)N(C)C)c2ccccc12)C(=O)N1CCCC1	-4%
COc1ccc(N2CCN(C(=O)CCc3nnc4ccc(N5CCCC5)nn34)CC2)cc1	3%
CC(=O)c1ccc(NC(=S)NNC(=O)c2ccccc2[N+](=O)[O-])cc1	1%
Cc1cc(C)c2c(CC(=O)O)coc2c1	-3%
N#CC1=C(N2CCOCC2)/C(=C\c2ccccc2)CC1	-1%
Cc1ccc(S(=O)(=O)NC(=O)NCCCCNC(=O)NS(=O)(=O)c2ccc(C)cc2)cc1	-2%
N#CC1=C(SCc2ccccc2)NC(=O)C(C#N)C12CCCC2 (centres undefined)	-7%
COCCCN1C(=O)c2ccc(C(=O)NCc3ccco3)cc2C1=O	1%
Cc1nn(-c2ccccc2)c2nc(-c3ccccc3)cc(C(=O)N3CCOCC3)c12	-4%
O=S(=O)(c1ccc(Cl)s1)N1CCCc2cccc(O)c21	-8%
c1cncc(-c2noc(CC3CCCCC3)n2)c1	-2%
CCC(=O)Nc1nc(C)c(-c2csc(Nc3cccc(C(=O)O)c3)n2)s1	-6%
C[C@]12c3[nH]c4ccc(Cl)cc4c3CCN1C(=O)[C@@H](CC(=O)NCCN1CCOCC1)C[C@@H]2C(=O)N1CCOCC1	-6%
Cn1c(N)c(C(=O)COC(=O)Cc2ccsc2)c(=O)n(C)c1=O	?
COc1ccccc1CNC1CCCc2ccccc21 (centres undefined)	-11%
COCCNCCCCOc1ccccc1-c1ccccc1	-4%
O=C(CCl)Nc1ccc(Oc2cnc3ccccc3n2)cc1	1%
Fc1ccc(-c2cc(C(F)(F)C(F)F)[nH]n2)cc1	-8%
COC1CCN(C(=O)C2CCC(=O)N(CCc3cccc(F)c3)C2)CC1 (centres undefined)	-6%
Cc1nc2c(ccc3nc(NC(=O)c4ccc(S(=O)(=O)N(C)C)cc4)sc32)s1	?
COc1ccc(CC(=O)Nc2c(C(N)=O)oc3ccccc23)cc1OC	-5%
CN(Cc1cccs1)C(=O)CN1CCN(S(=O)(=O)c2ccc3c(c2)OCCCO3)CC1	-2%

3 structures already listed, sorted by formula weight, smallest number first:
SMILES	KAT2A inh
O=C(Nc1ccc(Cl)cc1)/C(=C1\CCCN1)[N+](=O)[O-]	0%
COc1ccc(CC(=O)Nc2c(C(N)=O)oc3ccccc23)cc1OC	-5%
CN(Cc1cccs1)C(=O)CN1CCN(S(=O)(=O)c2ccc3c(c2)OCCCO3)CC1	-2%

Next part
SMILES	KAT2A inh
CC1(C)O[C@@H]2[C@H](O1)[C@@H](COS(=O)(=O)O)O[C@H]2n1cc(Br)c(=O)[nH]c1=O	-1%
CCc1ccc(OCC(=O)Nc2ccc(CN3CCCCC3)cc2)cc1	-2%
Cc1nn(CC#N)c(=O)n1-c1ccccc1F	-4%[0.501 µM]
Cc1cc(N2CCN(S(=O)(=O)Cc3ccccc3)CC2)n2ncnc2n1	-6%
CCc1ccc(C(=O)N2CCN(c3ccc(F)cc3)CC2)s1	-3%
CCOc1ccc(NC(=NCc2ccc3c(c2)OCO3)SC2CC(=O)N(c3ccccc3)C2=O)cc1 (centres undefined)	-11%
FC(F)(F)c1cnc(N2CCCN(C(=S)Nc3ccccc3)CC2)c(Cl)c1	-13%
Clc1ccc(Nc2nc(NCCN3CCOCC3)nc(N3CCOCC3)n2)cc1	2%
COCCN(C(=O)c1ccc2ccccc2c1)c1c(N)n(Cc2ccccc2)c(=O)[nH]c1=O	-2%
Nc1cccc(-c2nc3ccc(N)cc3s2)c1	?
Cc1ccc(S(=O)(=O)NCC(=O)OCC(=O)N(Cc2ccccc2)C(C)(C)C)cc1	1%
O=C(Nc1ccc(Cl)cc1N1CCOCC1)C1CCCCC1	-6%
CCc1ccc(C(=O)COC(=O)c2cccs2)cc1	-5%
CC(=O)NC(CC(=O)O)c1ccc([N+](=O)[O-])cc1 (centres undefined)	-2%
O=C(Nc1nnc(S(=O)(=O)N2CCCC2)s1)c1ccccc1Cl	-9%&-10%
Nc1nnnn1/N=C/c1ccc(Br)cc1	?
CCOc1ccccc1CNC(=O)C1CCN(c2nnc(-n3c(C)ccc3C)s2)CC1	0%
CCc1ccc2c(CN(CC)Cc3nc4ccccc4c(=O)[nH]3)cc(=O)oc2c1	-13%
CC(=O)c1c(C)[nH]c(C(=O)COC(=O)c2cccc(S(=O)(=O)N(C)c3ccccc3)c2)c1C	-8%
COC(=O)c1cccc(NC(=S)NC(C)C)c1	-7%
C=CCn1c(C)nnc1SCC(=O)NC1CCCCC1	-16%
CN(C(=O)COC(=O)c1ccc([N+](=O)[O-])cc1Cl)C1CCCCC1	-7%
Cc1cc(Nc2cccc(Cl)c2)nc2ccc(NC(=O)COc3ccc(Cl)cc3)cc12	-13%
Cn1c(=O)c2c(ncn2CC(=O)OCc2ccccc2)n(C)c1=O	1%
CCC(=O)c1ccccc1OCCN1CCN(Cc2ccccc2)CC1	-2%
CC1(C)CC(NC(=O)COc2ccccc2Cl)CC(C)(C)N1	-2%
